# AID504770: growth inhibition of E. coli YBA685, primary screen, V. cholerae RctB inhibitors; E. coli YBA685 rctB-dependent plasmid, OD600 growth, 3 h; active compounds read low; z-score (no concentration beside the values); hit rate 0.27% among 130,000;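 active means z-score under -2 on both plates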;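 further: wells of about 30 µL received 100 nL stock; score is relative to mean and SD of the test wells; the first replicate is given; strong numbers were not always called active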
# CapD inh: Bacillus anthracis CapD inhibitors, primary screen, biochemical, fluorescence intensity; z-score (no concentration beside the values); purified CapD enzyme, fluorescence intensity read-out; active compounds read low; some hits fall short of the stated cut; hit rate 0.23% among 140,000; AID 492967, 2010; CapD gamma-glutamyltranspeptidase (Bacillus anthracis Ames Ancestor);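 active means z-score under -4 in either of two replicates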;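 further: stock transfer was 100 nL into about 40 µL; score is relative to mean and spread of the plate; one replicate is shown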
# The depositor's hits bear a star; · = no result given; & = joins results of further samples.
canonical_smiles | AID504770 | CapD inh
Cn1c(=O)n(C)c2cc(S(=O)(=O)N(Cc3ccccc3)C(=O)c3ccncc3)ccc21 | -0.95 | -7.59*
NC(=O)c1ccsc1NC(=O)c1cc(=O)c2ccccc2o1 | -0.8 | 0.04
Cc1ccc(-n2cnnn2)cc1Cl | -1.1 | -1.25
Cc1ccc(NC(=O)C2CCN(c3ccc(N4CCOCC4)nn3)CC2)cc1C | 0.4 | 1.04
CN(C)c1ccc(/C=C/C#N)cc1 | -0.2 | 7
Cc1onc(-c2ccccc2Cl)c1C(=O)Nc1ccc2c(c1)COCO2 | · | 0.08
COc1cc2c(cc1OC)C(C(=O)N1CCCC1)C(c1ccccc1F)N(C)C2=O (centres undefined) | 1.2 | -0.57
CCC(C)(C)n1nnnc1C(c1cccnc1)N1CCCC(C)C1 (centres undefined) | 0.25 | ·
Cn1c(=O)c(C=Nc2ccccc2)c(O)c2ccccc21 | -0.3 | 0.11
CCNC(=S)N1CCC(n2cnc3ccccc32)CC1 | -0.5 | ·
CCCC(C(=O)O)c1ccccc1 (centres undefined) | 2.2 | -0.32
CC1CCc2c(cc(-c3ccccc3)n2-c2ccc(C(=O)NCCN3CCN(C)CC3)cc2)C1 (centres undefined) | 0.2 | 62.8
CCS(=O)(=O)c1ccccc1C(=O)O | 2.25 | ·
CCn1nnc(NC(=O)c2sc3ccccc3c2Cl)n1 | -0.35 | 2
COc1ccc(S(=O)(=O)N(CC(=O)Nc2ccccc2)c2ccccc2)cc1 | · | -0.38
Cc1ccccc1-n1c(=O)c2ccccc2n2cnnc12 | -0.35 | ·
CN1CCN(C(=O)c2cc3c(n(-c4ccccc4)c2=O)CCCC3=O)CC1 | 0.25 | ·
Cc1cccc(N2CCN(S(=O)(=O)c3cccc4nonc34)CC2C)c1 (centres undefined) | · | -0.835
O=C(CN1C(=O)C2C3C=CC(C3)C2C1=O)Nc1ccccc1 (centres undefined) | 0.35 | ·
CC(C)c1ccc(C2C(C#N)=C3N=C(N)c4ccccc4N3C3=C2C(=O)CCC3)cc1 (centres undefined) | 0.45 | -1.25
COc1ccc(CC(=O)N(Cc2ccccc2)C(C)C)cc1 | 1.55 | 0.73
OC1CCCCC1N1CCC(c2ccccc2)CC1 (centres undefined) | 0.1 | 1.02&-0.28
CCOC(=O)C1=C(C)Nc2ccccc2N=C1NC(=O)Cc1coc2cc(C)c(C)cc12 | -0.9 | ·
CCC(Sc1nc(O)cc(=O)[nH]1)C(=O)Nc1nnc(C(C)C)s1 (centres undefined) | 1.5 | ·
CC1CN(C(=O)COC(=O)c2ccccc2NS(C)(=O)=O)CC(C)O1 (centres undefined) | -0.35 | ·
C/C(N)=C(/C#N)C(=O)Cn1cc(S(=O)(=O)N2CCCC2)ccc1=O | 0.2 | ·
N#Cc1cccnc1N1CCN(C(=O)c2ccccc2)CC1 | 0.5 | 60.3
O=C(CC(c1ccccc1)c1ccccc1O)N1CCCCC1 (centres undefined) | -0.4 | -0.34
COc1ccc2nc(SCC(=O)N3CCCCC3)c(C#N)cc2c1 | -0.35 | ·
OCc1ccccc1O[C@@H]1O[C@H](CO)[C@@H](O)[C@H](O)[C@H]1O | 0.95 | 1.04
Nc1nn2c([n+]1N)N=C(c1ccccc1)C2 | 1.9 | ·
Nc1nc(-c2cccs2)c(CC(=O)O)s1 | 0.45 | -1.32
COc1cc(OC)c(-c2nc(-c3ccccc3)c(-c3ccccc3)[nH]2)cc1OC | · | 42.5
Cc1ccc(C2C(C#N)=C(N)N(N3CCOCC3)C3=C2C(=O)CC(C)(C)C3)cc1 (centres undefined) | -0.15 | 0.675
Cc1ccc(-n2nc(C)cc2N)cc1 | -1 | 0.385
COC(=O)c1cc2c(cc1NC(=O)Cn1nc(Cc3ccncc3)c3ccccc3c1=O)OCO2 | 1.1 | 1
CCOC(=O)c1c(NC(=O)c2c(-c3ccccc3Cl)noc2C)sc2c1CCCC2 | · | -0.145
Cc1c(C(=O)N2CCCC2)oc2ccc3c(c12)C(O)CC1(CCCCC1)O3 (centres undefined) | -1.35 | 1.29
CN(c1ccnc(C(=O)NCc2ccccn2)c1)S(=O)(=O)c1ccccc1 | 0.35 | -1.36
Cc1ccc([N+](=O)[O-])cc1N=Cc1nc(-c2ccc(Br)cc2)oc1O | · | 0.215

# Nothing new here: an excerpt of the list.
canonical_smiles | AID504770 | CapD inh
COc1ccc(CC(=O)N(Cc2ccccc2)C(C)C)cc1 | 1.55 | 0.73
OC1CCCCC1N1CCC(c2ccccc2)CC1 (centres undefined) | 0.1 | 1.02&-0.28
CCOC(=O)C1=C(C)Nc2ccccc2N=C1NC(=O)Cc1coc2cc(C)c(C)cc12 | -0.9 | ·
CCC(Sc1nc(O)cc(=O)[nH]1)C(=O)Nc1nnc(C(C)C)s1 (centres undefined) | 1.5 | ·
CC1CN(C(=O)COC(=O)c2ccccc2NS(C)(=O)=O)CC(C)O1 (centres undefined) | -0.35 | ·

# Some of these compounds in order of molar mass, ascending:
canonical_smiles | AID504770 | CapD inh
CC1CN(C(=O)COC(=O)c2ccccc2NS(C)(=O)=O)CC(C)O1 (centres undefined) | -0.35 | ·
Cc1ccc(NC(=O)C2CCN(c3ccc(N4CCOCC4)nn3)CC2)cc1C | 0.4 | 1.04
COc1cc2c(cc1OC)C(C(=O)N1CCCC1)C(c1ccccc1F)N(C)C2=O (centres undefined) | 1.2 | -0.57

# More compounds
canonical_smiles | AID504770 | CapD inh
O=C(N/N=C/c1c[nH]c2cnc(OCc3ccccc3)cc12)c1ccc(OC(F)(F)F)cc1 | · | 0.335
O=c1oc(-c2cc3c(s2)CCC3)nn1CCN1CCCC1 | -0.05 | ·
CN1CCN(NC(=O)c2csc3ccccc23)CC1 | 0.95 | -0.155
Cn1c(=O)cc(Nc2ccc(F)c(Cl)c2)c2ccccc21 | 0.2 | 3.38
C=CCNc1cnn(Cc2ccccc2)c(=O)c1Cl | 1.4 | -0.08
O=C(O)c1cnn2c1[nH]c(=O)c1ccccc12 | · | 0.71
CCOc1cccc2sc(NC(=O)CC)nc12 | -0.35 | 0.25
CCNC(=O)CC1C(=O)N(c2ccc(F)cc2)C(=O)N1Cc1ccc(F)cc1 (centres undefined) | -1.3 | -0.09
CCOC(=O)c1cc(=O)c2c(O)cccc2o1 | 1.85 | 0.36
O=C1C2C3C=CC(C3)C2C(=O)N1c1ccc(-c2nc3ccccc3o2)cc1 (centres undefined) | 0.15 | ·
CC(=O)COc1ccc2c(c1C)OC(C)(C)CC2=O | · | 31.3
COc1ccc(-n2c(-c3ccc(Br)cc3)cn3c4c(=O)n(C)c(=O)n(C)c4nc23)cc1 | · | -0.33
COc1ccccc1C(CC(=O)NC1CCOC(C)(C)C1)c1ccc(OC(C)C)cc1 (centres undefined) | -0.3 | 1.33
O=c1[nH][nH]c(=O)c2ccccc12 | · | -0.845
CC(C)CN1C(=O)/C(=C/c2cn(-c3ccccc3)nc2-c2ccc(S(=O)(=O)N(C)C)cc2)SC1=S | · | -0.26
CCOC(=O)C1CCN(Cc2cn3c(-c4ccc(Br)cc4)nnc3s2)CC1 | 0.2 | -0.7
N#CCSc1nc2ccccc2c(=O)n1CC1CCC(C(=O)NCCc2ccccc2)CC1 (centres undefined) | 2.1 | -1.04
CS(=O)(=O)c1ncc(Cl)c(C(=O)NCCc2ccc(S(N)(=O)=O)cc2)n1 | -0.35 | -0.085
CC(=O)c1cc(C#N)c(SCC(=O)c2cc3ccccc3oc2=O)nc1C | · | -0.39
CC(C)(C)c1nc(CN2CCOCC2)ccc1O | 0.6 | 0.08
COc1ccc(CC(=O)N2CCC(c3ccccc3)C2)cc1 (centres undefined) | 0.05 | -0.425
O=C(CC(NCc1ccccc1)c1ccccc1O)NCc1ccccc1 (centres undefined) | -1.1 | -0.215
COc1ccc(C2=NN3C(C2)c2cc(OC)ccc2OC3c2ccc(OC(C)C)cc2)cc1 (centres undefined) | · | 0.27
CN(CC(=O)c1c(N)n(C)c(=O)n(C)c1=O)Cc1nc2ccccc2c(=O)[nH]1 | 0.2 | ·
CCOC(=O)N1CCN(C(=O)c2cnn3ccccc23)CC1 | -0.55 | -0.59
COc1ccc(CCNC(=O)CSc2nc(C)nc3sc4c(c23)CCCC4)cc1OC | · | -0.225
Clc1ccccc1CSc1nnc2n1CCCN2 | -1.45 | 1.47
Cc1ccc2[nH]cc(CCNS(C)(=O)=O)c2c1 | 0.8 | ·
Cn1c(=O)cc(OCC(=O)N2CCC(N3CCCCC3)CC2)c2ccccc21 | -1.15 | 0.295
O=C(O)Cc1cn(-c2ncc(C(F)(F)F)cc2Cl)c2ccccc12 | 0.45 | -1.35
CCOC(=O)C1CCN(C(=O)COc2cc(=O)n(C)c3ccccc23)CC1 | 0.05 | 0.7
COc1cc(NC(=S)NC(C)c2cn(C)nc2C)cc(OC)c1 (centres undefined) | -1.2 | -0.11
NNC(=O)CSc1ccccc1[N+](=O)[O-] | · | -0.205
COc1cc(OC)c(OC)cc1/C=N/NC(N)=O | 0.1 | ·
O=C(C1CCC1)N1CCC(Oc2nnc(-c3ccccc3)o2)CC1 | 0.85 | 0.03
CCOc1ccccc1C(=O)NCCn1ccc2ccccc21 | -0.2 | -0.485
COc1ccc2nc(SCC(=O)Nc3ccc4c(c3)C(=O)c3ccccc3C4=O)[nH]c2c1 | · | 0.045
CC(C)(C)C1CCc2oc3c(cc(NS(=O)(=O)c4ccc(Cl)c([N+](=O)[O-])c4)c4ccccc43)c2C1 (centres undefined) | · | -0.265
Cc1ccc(-c2nc(CN(C)C)cc(CN(C)C)c2O)cc1 | -0.9 | ·
COCCNC(=O)c1nc(-c2ccc(C(F)(F)F)cc2)no1 | -1.1 | -0.49
CCCSc1nc2cn(CC)nc2c(=O)n1Cc1ccccc1 | -0.6 | -0.155
CC(OC(=O)c1ccncc1)C(=O)Nc1ccc(Cl)cc1Cl (centres undefined) | 0.8 | ·
COc1cccc(C2=NOC(C(=O)Nc3ccc4c(c3)OCO4)C2)c1 (centres undefined) | 0.55 | -0.315
O=C(Cn1nnc2sc3c(c2c1=O)CCCC3)N1CCCCC1 | -0.9 | -0.195
COc1ccc(/C(O)=C2\C(=N)N(c3cc(OC)ccc3OC)C3=C(C(=O)CCC3)C2c2ccc3c(c2)OCO3)cc1 (centres undefined) | · | 0.78
COc1ccc(/C=C/C(=O)Nc2ccc(N3CCOCC3)c(Cl)c2)cc1 | 0.15 | -0.245
CC(C)(CC(=O)NC1CCSC1=O)n1cccc1 (centres undefined) | · | -0.545
Cc1nc2nc(C3CCN(C(=O)OC(C)(C)C)CC3)nn2c(C)c1CCC(=O)O | -0.35 | -0.305
Cn1c(SCCS(=O)(=O)c2ccc(OC(F)(F)F)cc2)nnc1C(F)(F)F | 0.2 | 0.425
COc1ccc(N=Nc2c(C)nn(-c3ccc(C)cc3)c2N)cc1OC | -0.5 | ·
O=C(Nc1sc2c(c1-c1nc3ccccc3s1)CCCC2)c1ccc(S(=O)(=O)N2CCCCC2)cc1 | · | 0.175
CCC(C)NC(=O)c1csc2c1CCCC2 (centres undefined) | -0.45 | -0.24
COC(=O)C(C(C)C)N1C(=O)C2C3C=CC(C3)C2C1=O (centres undefined) | 0.1 | 0.36
Cc1cc2cc(CNC(=O)CCC(=O)O)ccc2n1C | -0.25 | 0.145
COc1ccc(C(c2c(C)[nH]n(-c3ccccc3)c2=O)c2c(C)[nH]n(-c3ccccc3)c2=O)cc1 | · | -1.2
O=C(CCCCCn1c(SCC(=O)c2ccc(Br)cc2)nc2ccccc2c1=O)NCc1ccco1 | · | 0.455
C=CCOC(=O)C1=C(C)NC(SCC(N)=O)=C(C#N)C1c1ccccc1 (centres undefined) | -0.8 | ·
COC(=O)c1sccc1Oc1ccc(C(F)(F)F)cc1NC(=O)c1ccco1 | -1.15 | -1.02
Cc1cccc(NCN2C(=O)c3ccccc3C2=O)c1C | · | 0.865
COc1cc(-c2cc(-c3ccccc3)nc(SCC(=O)Nc3ncccn3)c2C#N)cc(OC)c1OC | · | 1.02

# Whole records from above:
# C=CCOC(=O)C1=C(C)NC(SCC(N)=O)=C(C#N)C1c1ccccc1 (centres undefined) is listed with AID504770 = -0.8; CapD inh = ·
# Cc1nc2nc(C3CCN(C(=O)OC(C)(C)C)CC3)nn2c(C)c1CCC(=O)O is listed with AID504770 = -0.35; CapD inh = -0.305

# More structures follow.
canonical_smiles | AID504770 | CapD inh
O=C(COc1ccc(F)cc1)N(CC1=CCS(=O)(=O)C1)c1ccccc1 | 0.25 | ·
COC(=O)c1ccc(CN)cc1 | -0.35 | -0.265
Cc1cccc(NC(=O)Cn2cnc3sc(C)c(S(=O)(=O)N4CCC(C)CC4)c3c2=O)n1 | -0.45 | -0.305
O=c1c2ccccc2n(Cc2cc(=O)n3ccccc3n2)c(=O)n1CCCS(=O)(=O)C1CCCCC1 | 0.2 | 1.59
COc1cccc(CNC(=O)Cn2c(=O)c3cccn3c3ccc(F)cc32)c1 | 0.15 | 0.83
Cc1nnc(-c2ccccc2)o1 | -0.7 | 0.395
COc1cccc2c1N(C(=O)c1ccc(F)cc1)C(C)(C)c1ssc(=S)c1-2 | · | 0.705
Cc1cccc(Nc2cc(C)nc3ccccc23)c1 | -0.1 | 0.79
NC(=O)N/N=C/c1sc(=O)n(Cc2cccc(C(=O)O)c2)c1Cl | 0.35 | ·
Cc1ccc(-c2nc3ccccc3n2OCc2ccc(Cl)cc2Cl)cc1 | · | 0.49
COc1ccc(-c2nc(-c3ccc(C)cc3C)cs2)cc1 | 1.25 | 4.61
CCc1nc2ccccc2c(=O)n1-c1ccccc1Cl | 1.5 | -0.3
CCCCCn1c(SCc2ccncc2)nc2cc(C(=O)N3CCN(C(=O)OCC)CC3)ccc2c1=O | · | 0.085
CC1=C(C(=O)Nc2ccccc2)C(c2ccccn2)n2nnnc2N1 (centres undefined) | · | -1.23
COc1ccc(C2Nn3c(nnc3C3CC3)SC2C(=O)c2ccc(F)cc2)cc1 (centres undefined) | 0.3 | ·

# Source: PubChem (ICCB-Longwood Screening Facility, Harvard Medical School)
